Rango-impB inh: Rango-importin beta binding inhibition | Q14974 | Rango CFP/YFP FRET sensor + importin beta, 45 min | Potency, µM (doses to about 92.2 µM), without a hit: at the top dose inhibition of complex formation | 0.031% of 340,000 active | AID 540263; active = rising FRET ratio curve, often small or poorly fitted; inconclusive = mostly compound fluorescence or quenching in the first reads; inactive = flat curves in all reads;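 also: potency is read from the fitted curve at half-maximal effect; 0% = DMSO wells and 100% = buffer wells lacking importin beta; nearly all actives have a fitted effect of over 15% in size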
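Inhibition scored from the CFP 486 nm/YFP 530 nm FRET ratio 45 min after adding 0.125 microM importin beta to 50 nM Rango biosensor preincubated 5 min with compound (room temperature, PBS with DTT, Tween-20, BSA). No-importin wells as positive control.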
GLA inh pH 4.5: blocks human alpha-galactosidase A at pH 4.5; P06280; purified enzyme, 4-MU-alpha-Gal fluorescence, pH 4.5; activity change, negative = inhibition, % at 105 µM; 230,000 tested, under 10 active; AID 1467; inconclusive = small, poorly fitted or top-dose-only inhibition, or a rising curve; inactive = flat fitted curve, though single readings scatter; no compound was filed as active;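 also: 0% = full activity with enzyme and -100% = basal without enzyme; dose as in the result columns while the protocol names 77 µM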
Target sequence (P06280 whole entry, looked up): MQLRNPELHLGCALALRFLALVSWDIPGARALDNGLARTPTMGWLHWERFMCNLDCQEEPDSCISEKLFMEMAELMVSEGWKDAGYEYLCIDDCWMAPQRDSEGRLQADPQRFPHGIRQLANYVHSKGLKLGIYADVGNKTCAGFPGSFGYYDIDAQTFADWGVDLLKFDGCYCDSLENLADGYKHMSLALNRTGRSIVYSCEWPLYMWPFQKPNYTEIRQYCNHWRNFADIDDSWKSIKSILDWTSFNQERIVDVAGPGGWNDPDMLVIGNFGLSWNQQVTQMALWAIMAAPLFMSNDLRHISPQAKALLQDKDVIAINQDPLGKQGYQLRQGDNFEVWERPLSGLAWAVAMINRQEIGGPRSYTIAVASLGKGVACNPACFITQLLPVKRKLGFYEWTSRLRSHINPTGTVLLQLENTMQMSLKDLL
Rango dissoc inh: inhibition of RanGTP-driven Rango-importin beta dissociation; Potency, µM (titrated, usually from 46.1 µM), for the others: at the highest dose activity change, negative = inhibition; AID 540253; Biochemical FRET Rango-importin beta, RanGTP-induced dissociation; 0.071% of 340,000 active; O95149+P62826; active means falling FRET ratio curve, often poorly fitted, with flat reads before Ran was added; inconclusive means other falling curves, or compound fluorescence or quenching; inactive means flat or rising ratio curve;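 also: potency is read from the fitted curve at half-maximal effect; % of control where 0% means no effect; nearly all actives have a fitted effect of over 45% in size; -100% = wells without RanGTP and RCC1; the record marks most hits as doubtful in a second field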
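Rango (0.1 uM)–importin beta (0.25 uM) complex; RanGTP-RCC1 trigger; 45 min RT; CFP/YFP FRET read.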
miR-21 reporter: raises the signal of a miR-21 reporter. HeLa miR-21 FLuc reporter, luciferase, 48 h. Potency, µM (highest dose often 38.3 µM), for inactives: top-dose reporter change, positive = more light. 340,000 tested, under 10 active. AID 2288; active = well fitted rising curve with a large enough effect; inconclusive = small, poorly fitted or top-dose-only effect; inactive = no such curve, though single readings can be large or run the other way;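 also: % of control where 0% means no effect; miR-21 action dims this reporter so a rising signal means less miR-21 action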
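Using DMEM plus 10% FBS, HeLa miR-21-FLuc cells are incubated with test compounds (final up to about 40uM) for 48 hours; firefly luciferase signal is then imaged following reagent-mediated lysis.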
* marks the source's active call; other numbers are inactive results; ? = inconclusive; · = no result given; & = joins results of further samples. Some of the compounds tested, so the mix of outcomes need not match the whole.

SMILES	Rango-impB inh	GLA inh pH 4.5	Rango dissoc inh	miR-21 reporter
CCN(C(=O)Cn1cnc2cc([N+](=O)[O-])ccc2c1=O)C1CCS(=O)(=O)C1 (stereo not given)	11%	-22	14%	-1%
Cc1ccnc(NS(=O)(=O)c2ccc(NC(=O)c3cc(=O)c4ccccc4o3)cc2)n1	3.1%	·	10%	-4%
Cc1ccc(S(=O)(=O)N(C)C)cc1NC(=O)COC(=O)c1c(C)noc1C	-2.8%	5	-5%	-5%
Cc1cc(C)nc(NC(=O)NS(=O)(=O)N2CCCCCC2)n1	3.2%	-21	5%	-4%
Cc1ccc(S(=O)(=O)c2nc(S(=O)(=O)c3ccc(C)cc3)c(NCc3ccco3)s2)cc1	?	11	-15%	-1%
O=C(c1ccc(CN2CCOCC2)cc1)N1CCN(c2ccccc2)CC1	-0.4%	3	1%	-8%
CCCCNC1(C#N)CCN(Cc2ccccc2)CC1	-0.3%	·	6%	·
CCc1nnc(NC(=O)Cc2ccc(OC)cc2)s1	0.2%	1	2%	-1%
CC(=O)Nc1cc2c(cc1Br)-c1ccccc1C2	3.3%	·	-7%	·
CC1CC(=O)NN1C(=O)c1ccccc1 (stereo not given)	-1.7%	-2	-17%	5%
CO/N=C/CC(=O)Nc1ccc(F)cc1F	?	-1	-14%	-3%
Cn1cccc1C(=O)NC1CCCCC1	-0.1%	·	2%	·
C=CCOc1c(Br)cc(CNCCCN2CCOCC2)cc1OC	-2.7%	·	6%	1%
CC(=O)Cc1nsc(NC(=O)c2csc3c2CCCC3)n1	-0.8%	-8	17%	-35%
O=c1nc(Nc2cccc(Cl)c2)oc2cc(Cl)oc(=O)c12	?	-19	?	-1%
CN(C)/C=N/c1cc(=O)[nH]c(=O)n1Cc1ccccc1	-1.2%	-1&2	-17%	-5%
CC(=O)NC(=S)Nc1ccc(NC(=S)NC(=O)/C=C/c2ccco2)cc1	1.1%	-5	-11%	20%
S=C(NCCCN1CCOCC1)Nc1cccc(-c2nnc3n2CCCCC3)c1	0.5%	-9	6%	-1%
COc1ccccc1NC(=O)c1cnc2n(c1=O)CCS2	-0.2%	7	-9%	-14%
O=C(CSc1n[nH]c(-c2ccc(Br)cc2)n1)N1CCOCC1	1.4%	·	12%	·
Cc1csc(SCC(=O)NC2CCCC2)n1	0.5%	·	-10%	·
CCOC(=O)N1CCN(C2CCCN(C(=O)c3ccccc3SC)C2)CC1 (stereo not given)	-0.2%	·	2%	0%
CC(C)N1CCC(N2CCN(Cc3cccnc3)CC2CCO)CC1 (stereo not given)	2.3%	-8	-14%	1%
O=C(CSc1nc(-c2ccccc2)c(-c2ccccc2)[nH]1)NCC1CCCO1 (stereo not given)	0.4%	6	7%	16%
CCn1c(SCC(=O)NCC2CCCO2)nnc1-c1c[nH]c2ccccc12 (stereo not given)	?	2	11%	-6%

The list goes on.
SMILES	Rango-impB inh	GLA inh pH 4.5	Rango dissoc inh	miR-21 reporter
COc1ccc2[nH]cc(C(=O)CCl)c2c1	-0.4%	10	-1%	?
NC(=O)C(=O)NN=C1CCC(c2ccccc2)CC1 (stereo not given)	0.4%	3	0%	0%
COc1ccc(/C=N/Nc2ccc(C(=O)O)cc2)cc1OC	-2.7%	-1	-11%	-1%
O=C(CCCOc1ccccc1)Nc1cccc(S(=O)(=O)N2CCCCC2)c1	-1.7%	·	8%	·
Cc1nn(-c2ccccc2)c(C)c1NC(=O)COC(=O)Cc1cccc(C(F)(F)F)c1	3.3%	·	17%	·
O=C(CS(=O)c1ccc(F)cc1)N1CCOCC1 (stereo not given)	-0.3%	·	29%	1%
CCN1CCN(CCCN(Cc2ccco2)C(=S)Nc2ccccc2Cl)CC1	-3.0%	4	3%	3%
CC1CC2(C)Oc3ccccc3CC2C(C)C1CNCCCN(C)C (stereo not given)	-4.8%	-2	10%	?
CC(C)CCOC(=O)C1[C@H]2C(=O)N(Cc3cccs3)C[C@]23C=C[C@H]1O3 (stereo not given in full)	-0.9%	0	4%	0%
COc1cc(C(=O)Nc2cccc(S(=O)(=O)N3CCCC3)c2)c([N+](=O)[O-])cc1OC	6.4%	·	-1%	·
COc1ccc(NC(=O)N2CCC(C(=O)c3ccc4c(c3)OCCO4)CC2)cc1	0.8%	·	8%	-16%
CC(=O)NC1CC2CCCC(C1)N2S(=O)(=O)c1ccccc1 (stereo not given)	0.1%	-1	6%	-4%
O=C1C=CC2(O[C@H](c3ccccc3)[C@@H](c3ccccc3)O2)[C@H](Sc2ccccc2O)C1	-1.5%	·	14%	·
O=C(NC(c1ccccc1)c1ccccc1)c1ccc(CO)cc1	-4.2%	·	-9%	-1%
O=C(/C=C/c1ccccc1)Nc1cccnc1	0.7%	·	0%	-33%
O=C1CCCc2nc3nc4ccccc4n3cc21	·	4	·	-1%
COc1ccc(-c2csc(NC(=O)/C(N=Nc3ccccc3)=C(\C)O)n2)cc1	·	7	·	-18%
CCc1nnc(SCC(=O)Nc2ccc3ccccc3c2)n1N	4.3%	·	3%	·
C[C@@H]1[C@H]2[C@@H]3CC[C@@H](C3)[C@H]2CN[C@H]1c1cn(Cc2ccccc2)c2ccccc12	-0.1%	·	-8%	·
Cc1ccc(S(=O)(=O)NNC(=O)c2cnn(-c3ccc(Cl)cc3)c2C(F)(F)F)cc1	0.0%	3	8%	13%
O=C(O)c1ccccc1C(=O)NCC(O)COCC1CC=CCC1 (stereo not given)	1.0%	-5	9%	-1%
Cc1nc2ccc(NS(=O)(=O)c3ccc(C)c(C)c3)cc2s1	-0.7%	-1	20%	11%
Nc1ccc(C(=O)N/N=C/c2cn(Cc3ccccc3F)c3ccccc23)cc1	0.6%	·	-2%	0%
O=C(Cn1ccc2ccccc21)Nc1ccc2c(c1)OCO2	0.1%	6	-3%	-16%
O=C(Nc1cccnc1)c1cccc(S(=O)(=O)N2CCCCC2)c1	-1.1%	-2	-11%	2%

Copied from the list:
`Cc1ccc(S(=O)(=O)NNC(=O)c2cnn(-c3ccc(Cl)cc3)c2C(F)(F)F)cc1` in Rango dissoc inh = 8%
`COc1ccc(NC(=O)N2CCC(C(=O)c3ccc4c(c3)OCCO4)CC2)cc1` in Rango dissoc inh = 8%
`O=C(CS(=O)c1ccc(F)cc1)N1CCOCC1` (stereo not given) in Rango-impB inh = -0.3%
`Cc1nc2ccc(NS(=O)(=O)c3ccc(C)c(C)c3)cc2s1` in miR-21 reporter = 11%

(list continues)
SMILES	Rango-impB inh	GLA inh pH 4.5	Rango dissoc inh	miR-21 reporter
CCOc1ccc(NS(=O)(=O)c2ccc3c(c2)oc(=O)n3C)cc1	-3.1%	2	0%	-5%
CC1=C(C#N)CCC(=O)N1Cc1ccc(C)cc1	-0.2%	2	0%	-3%
O=C(Cc1ccc(F)cc1)NCCc1ccc(F)cc1	4.7%	-5	5%	-9%
COc1cc(C(=O)OCC(=O)NC(N)=O)cc(CN2C(=O)c3ccccc3C2=O)c1OC	0.2%	·	11%	0%
COc1ccc(CC(=O)OCN2C(=O)c3ccccc3C2=O)cc1	2.3%	0	-13%	-1%
O=c1oc(-c2ccco2)nc2sc3c(c12)CCCC3	-12%	5	?	-19%
CC(C)c1cc(C(=O)O)on1	0.9%	-3	-12%	0%
O=C(CCSc1nc(-c2ccco2)cc(C(F)(F)F)n1)NCc1cccs1	-0.9%	-5	-11%	-7%
O=C(CSc1ccc([N+](=O)[O-])cn1)Nc1ccc2[nH]c(=O)[nH]c2c1	4.2%	·	-3%	0%
CCN(CC)c1cc(CS(=O)c2ccccc2)nc(-c2ccccc2)n1 (stereo not given)	-3.0%	·	-6%	·
CCn1c(SCC(=O)Nc2ccc3c(c2)OCCO3)nnc1-c1c[nH]c2ccccc12	-4.8%	-7	8%	-1%
CC1CCCC(NC(=O)CNC(=O)c2cccs2)C1C (stereo not given)	-2.2%	·	7%	·
COc1cc(Br)cc(C(c2c(C)n(C)n(-c3ccccc3)c2=O)c2c(C)n(C)n(-c3ccccc3)c2=O)c1O	-0.1%	·	-2%	·
N#Cc1nc(-c2ccco2)oc1N1CCc2ccccc2C1	4.8%	-17	-17%	-35%
CCCCC[C@H](O)/C=C/[C@H]1C=CC(=O)[C@@H]1C/C=C\CCCC(=O)O	·	14&-10	·	-19%
COc1ccc(CCN2C(=O)CSC2c2ccc(OC)c(OC)c2)cc1OC (stereo not given)	-2.8%	·	-17%	-8%
CC(=O)c1ccc(N(C(=O)CS(=O)CC(=O)Nc2ccc(F)cc2)C(C(=O)NC2CCCCC2)c2cccs2)cc1 (stereo not given)	-2.7%	-2	5%	-31%
Nc1nc(SCC(=O)OCc2ccccc2)[nH]c(=O)c1NC(=O)c1ccco1	-0.3%	-13	-2%	2%
Nn1c(SCc2ccccc2F)nnc1-c1cccnc1	0.0%	-2	23%	-45%
COc1cccc(/C=C2\CCC(C3CCCC3)C2=O)c1 (stereo not given)	0.2%	·	-4%	-50%
COc1cc(C=C2C(=O)OC(C)(C)OC2=O)cc(Cl)c1OCC(=O)Nc1ccccc1	?	6	-10%	1%
CN(C)c1ccc(/C=N/N2C(=S)SC(C)(C)C2N(O)C(=O)Nc2ccc([N+](=O)[O-])cc2)cc1 (stereo not given)	0.0%	-2	-10%	-10%
Cc1nn(Cc2ccccc2)c(C)c1C(=O)NCCCN1CCCC1=O	5.5%	·	-15%	·
O=S1(=O)c2ccccc2C(CCO)N1Cc1ccccc1 (stereo not given)	?	-5	?	-3%
Nc1nnc(SCC(=O)Nc2cc(C(F)(F)F)ccc2N2CCOCC2)s1	0.6%	7	-9%	-5%

Sorted by formula weight (highest first): 3 of the compounds above.
SMILES	Rango-impB inh	GLA inh pH 4.5	Rango dissoc inh	miR-21 reporter
COc1cc(Br)cc(C(c2c(C)n(C)n(-c3ccccc3)c2=O)c2c(C)n(C)n(-c3ccccc3)c2=O)c1O	-0.1%	·	-2%	·
CCn1c(SCC(=O)Nc2ccc3c(c2)OCCO3)nnc1-c1c[nH]c2ccccc12	-4.8%	-7	8%	-1%
CCOc1ccc(NS(=O)(=O)c2ccc3c(c2)oc(=O)n3C)cc1	-3.1%	2	0%	-5%

Continued:
SMILES	Rango-impB inh	GLA inh pH 4.5	Rango dissoc inh	miR-21 reporter
CCOc1cc(C2C(C(=O)c3ccccc3)=C(C(=O)OC)Nc3nnnn32)ccc1O (stereo not given)	-0.6%	1	0%	-12%
CC1=C(C(=O)OCCBr)C(c2cccc3ccccc23)NC(=O)N1 (stereo not given)	-2.4%	·	1%	-3%
COc1ccc(CCNC(=O)COC(=O)C2CC2)cc1OC	-0.5%	·	-1%	·
COc1cccc(N2CC(C(=O)Nc3nnc(SCC(=O)NC4CCCC4)s3)CC2=O)c1 (stereo not given)	-0.8%	·	-1%	-5%
Oc1cc(O)cc(-c2cc3ccc(O)cc3o2)c1	0.0%	·	-10%	·
CCOC(=O)c1c(CSc2ccccc2)n(C)c2cc(Br)c(O)c(CN(C)C)c12	2.2%	-3	-28%	16%
O=[N+]([O-])c1ccccc1NCCNS(=O)(=O)c1ccc(Cl)cc1	?	-9	-7%	-12%
CN(C)C(=O)C1Cc2ccccc2CN1S(=O)(=O)c1ccc(F)cc1 (stereo not given)	2.7%	·	-10%	6%
O=C(/C=C/c1ccccc1)OCCCCN=C1NS(=O)(=O)c2ccccc21	-3.3%	-6	15%	1%
CNS(=O)(=O)c1cccc(C(=O)OCC(=O)C23CC4CC(CC(C4)C2)C3)c1	1.0%	-1	4%	2%
Cc1cc(Br)c(NC(=O)COC(=O)C2CCCCC2)c(Br)c1	-1.8%	·	-1%	·
O=C(CSc1n[nH]c(-c2ccccc2O)n1)N1CCOCC1	-0.2%	7	0%	-16%
COc1cccc2[nH]c(C(=O)NCC3CCCO3)cc12 (stereo not given)	-0.6%	·	16%	-13%
CC(=O)Nc1c(Cl)cc2c(c1Cl)Cc1ccccc1-2	-1.3%	·	-13%	·
COC(=O)c1ccc(SCC(=O)N2CCC(C)CC2)c([N+](=O)[O-])c1	-0.3%	-1	10%	-10%
CC(C)C(NC(=O)c1ccccc1)C(=O)N/N=C\c1ccco1 (stereo not given)	2.9%	4	-17%	-2%
Cc1ccc(-n2c(N)c(C(=O)N3CCOCC3)sc2=S)cc1	-3.8%	-6	8%	-12%
Cc1cc2oc(C(=O)NCCc3ccc(S(N)(=O)=O)cc3)c(C)c2cc1C	-1.9%	-2	-10%	-10%
CCOC(=O)c1cc[n+](CC(=O)c2ccc(F)cc2)cc1	?	-12	-8%	-7%
c1ccc2c(c1)nc1n2CCC1	6.9%	·	1%	·

Assay outcomes as filed in PubChem.
